Screening data (PubChem BioAssay)
rRNA inh HTS = inhibits bacterial ribosomal RNA function over humanized ribosomes | E. coli WT GFP vs humanized-ribosome RFP mutants, fluorescence, 24 h; stronger effect = lower value; DMSO median 0, no signal -100 | GFP signal change (wild-type ribosome), % (test concentration not listed) | 1.6% of 350,000 active;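 active = significant combined selectivity score with lowered wild-type GFP, culture density cut under 30%, mutant RFP and density less affected; inactive = any of these conditions unmet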; also: one replicate is shown; some compounds called inactive have numbers as strong as hits
rRNA inh HTS OD600 = second read-out of rRNA inh HTS, no call of its own (marks repeat the call); OD600 change, %; measured here: OD600 growth;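 optical density of the mix in the first replicate; 0 = DMSO median and -100 = no signal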
rRNA inh HTS RFP = recorded beside rRNA inh HTS, whose call it bears; RFP signal change, %; measured here: RFP humanized mutant strains;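 first replicate; 0 = DMSO median and -100 = no signal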
* hit, by the source's call. Only part of the results is shown; the hit share may differ from the screen's.

molecule	rRNA inh HTS RFP	rRNA inh HTS	rRNA inh HTS OD600
CCCS(=O)(=O)NC(=O)C1(C)CCCN(C(=O)c2ccc(OC)cc2OC)C1 (stereo unspecified)	-1.1	15	29
Cc1csc(=O)n1CCC(=O)OCC(=O)N(C)c1c(N)n(Cc2ccccc2)c(=O)[nH]c1=O	2.2	14	23
COc1ccc(-c2ccc3n(c2=O)C[C@@H]2N[C@H]3[C@H](C(=O)N3CCCCC3)[C@H]2CO)cc1	-0.5	2	1
COCC#Cc1ccc2c(c1)O[C@@H](CN(C)C(=O)Nc1ccc(OC)cc1)[C@@H](C)CN([C@@H](C)CO)S2(=O)=O	-3.5	-7	-2
COc1ccc2c3c([nH]c2c1)[C@H](CO)N(S(C)(=O)=O)CC31CN(CC2CCOCC2)C1	0.0	6	21
CC(C)NC(=O)N1CC2(C1)[C@H](c1ccccc1)[C@H](CO)N2C(=O)C1CCOCC1	0.5	6	22
O=C(c1cccnc1)N1CC2(C1)[C@@H](c1ccccc1)[C@H](CO)N2C(=O)c1cccnc1	0.2	2	5
Cn1c(=O)oc2ccc(S(=O)(=O)Nc3ccc(Cl)cc3[N+](=O)[O-])cc21	0.0	-15	-12
C[C@H](CO)N1C[C@H](C)[C@@H](CN(C)CC2CCCCC2)Oc2ccc(NC(=O)Nc3ccc(C(F)(F)F)cc3)cc2C1=O	-1.3	-3	3
O=C(C[C@@H]1C=C[C@@H](NC(=O)c2ccccn2)[C@@H](CO)O1)NCc1cc(F)cc(F)c1	-2.0	0	12

Next records
molecule	rRNA inh HTS RFP	rRNA inh HTS	rRNA inh HTS OD600
C[C@@H]1CN([C@@H](C)CO)S(=O)(=O)c2ccc(C#CC(C)(C)O)cc2O[C@H]1CN(C)CC1CCCC1	0.0	-6	-18
COc1cccc(-c2ccc(C3[C@H]4CNC[C@@H]3N4CC3CCCCC3)cc2)c1 (stereo partly specified)	6.3	-4	-10
CCCC(=O)Nc1ccc2c(c1)OC[C@@H](C)N(C(C)=O)C[C@@H](C)[C@@H](OC)CN(C)C2=O	-2.3	0	1
O=C([C@H]1[C@H](CO)[C@H]2Cn3c(cccc3=O)[C@H]2N1CC1CCCC1)N1CCOCC1	1.4	4	6
CCc1nc2c(OCCC3CCCCC3)cccn2c1N(C)C(=O)c1ccccc1F	14	-8	-31
O=C(c1ccc(F)cc1)N1CC(=O)N2[C@@H](CO)[C@H](c3ccc(-c4ccccc4F)cc3)[C@@H]2C1	-1.8	2	-9
COc1ccc(CN(C)C[C@H]2OCCCC[C@H](C)Oc3ccc(NC(=O)c4ccccc4)cc3C(=O)N([C@@H](C)CO)C[C@@H]2C)cc1	1.5	-4	2
C[C@@H]1CN([C@H](C)CO)C(=O)c2cc(N(C)C)ccc2O[C@@H]1CN(C)C(=O)Nc1ccc2c(c1)OCO2	-0.5	0	3
CN1C(=O)c2cc(NC(=O)c3ccc(C(F)(F)F)cc3)ccc2OC[C@H]2O[C@H](CC(=O)NC3Cc4ccccc4C3)CC[C@H]21	44	-6	-19
C[C@H](CO)N1C[C@H](C)[C@@H](CN(C)S(=O)(=O)c2cccs2)OCCCC[C@H](C)Oc2ccc(NC(=O)Nc3cccc4ccccc34)cc2C1=O	-3.6	-3	0

Sorted by value in rRNA inh HTS RFP (lowest first): some entries from above.
Structure	rRNA inh HTS RFP
C[C@@H]1CN([C@H](C)CO)C(=O)c2cc(N(C)C)ccc2O[C@@H]1CN(C)C(=O)Nc1ccc2c(c1)OCO2	-0.5
C[C@@H]1CN([C@@H](C)CO)S(=O)(=O)c2ccc(C#CC(C)(C)O)cc2O[C@H]1CN(C)CC1CCCC1	0.0
COc1cccc(-c2ccc(C3[C@H]4CNC[C@@H]3N4CC3CCCCC3)cc2)c1 (stereo partly specified)	6.3

Next part
molecule	rRNA inh HTS RFP	rRNA inh HTS	rRNA inh HTS OD600
COc1ccc(S(=O)(=O)Nc2ccc3c(c2)CC(=O)N([C@@H](C)CO)C[C@H](C)[C@@H](CN(C)Cc2ccc(-c4ccccc4)cc2)O3)cc1	-0.7	-1	9
CCCNC(=O)N1CC2(CCN(CC3CCCC3)CC2)c2c([nH]c3cc(OC)ccc23)[C@H]1CO	-2.2	3	1
CO[C@H]1CC[C@H]2CCOc3ccc(C#N)cc3C(=O)N(C)C[C@@H](C)C(=O)N(C)C[C@@H]1O2	-4.5	1	7
CS(=O)(=O)Nc1ccc2c(c1)[C@H]1C[C@H](CC(=O)NCCc3ccccc3)O[C@H](CO)[C@H]1O2	-0.2	-1	-7
C[C@H]1CN([C@@H](C)CO)C(=O)Cc2cc(NC(=O)Cc3cn(C)c4ccccc34)ccc2O[C@@H]1CN(C)Cc1ccc2c(c1)OCO2	8.0	0	-11
CC(C)(O)C#Cc1ccc([C@@H]2[C@@H](CO)N3CCCCN(C(=O)c4cccc(F)c4)C[C@H]23)cc1	1.5	4	20
O=C(Nc1ccccc1F)N1C[C@H]2[C@@H](c3ccccc31)[C@@H](CO)N2C(=O)c1ccccc1F	0.5	2	2
COc1ccc(C(=O)Nc2ccc3c(c2)OC[C@@H](C)NC[C@@H](C)[C@@H](OC)CN(C)C3=O)cc1	-1.5	-2	4
CCCC#Cc1ccc([C@@H]2[C@@H](CO)N3CCCCN(CCC)C[C@@H]23)cc1	0.6	7	12
COC(=O)c1ccc(N2C(c3cc(OC)cc(OC)c3)=Cc3ccc(OC)cc3C2CC(=O)c2ccco2)cc1 (stereo unspecified)	-0.9	-4	1

Next part.
molecule	rRNA inh HTS RFP	rRNA inh HTS	rRNA inh HTS OD600
CO[C@@H]1CC[C@H]2CCN(C)C(=O)[C@H](C)CN(C)C(=O)c3cc(C#N)ccc3OC[C@@H]1O2	-2.2	1	-1
Cc1noc(C)c1S(=O)(=O)Nc1ccc2c(c1)C(=O)N([C@H](C)CO)C[C@@H](C)[C@@H](CN(C)C(=O)c1ccncc1)OCCCC[C@H](C)O2	-1.5	0	3
C[C@H](CO)N1C[C@H](C)[C@H](CN(C)Cc2ccncc2)Oc2ccc(NS(C)(=O)=O)cc2C1=O	1.1	1	6
C[C@@H]1CCCCO[C@H](CN(C)Cc2ccncc2)[C@H](C)CN([C@H](C)CO)C(=O)c2cc(NC(=O)NC3CCCCC3)ccc2O1	1.2	-6	2
CC1(C(=O)Nc2cccc(C(F)(F)F)c2)Cc2c(-c3cccc(C(F)(F)F)c3)ccnc2O1 (stereo unspecified)	-0.2	8	13
COCCNC(=O)C1(C)CCCN(C(=O)c2ccc(F)cc2Cl)C1 (stereo unspecified)	5.1	-11	-13
C[C@H](NC(=O)C[C@H]1CC[C@H](NC(=O)C2CCOCC2)[C@@H](CO)O1)c1ccccc1	-0.5	2	-2
C[C@@H]1CCCCO[C@@H](CN(C)C(=O)Nc2ccc3c(c2)OCO3)[C@@H](C)CN([C@H](C)CO)C(=O)c2cc(NC(=O)NC3CCCCC3)ccc2O1	-1.1	4	9
COc1ccc(CN(C)C[C@H]2Oc3c(NC(=O)Nc4c(C)noc4C)cccc3C(=O)N([C@@H](C)CO)C[C@@H]2C)cc1	1.1	2	5
Cc1noc(C)c1NC(=O)N[C@H]1C=C[C@@H](CC(=O)N2CCN(C)CC2)O[C@@H]1CO	-3.3	4	9

The results go on.
molecule	rRNA inh HTS RFP	rRNA inh HTS	rRNA inh HTS OD600
COc1ccc2c3c(n(C)c2c1)[C@H](CO)N(C(=O)CC1CC1)CC31CN(C(=O)CC2CC2)C1	-0.9	-4	5
CC(=O)N1CC(=O)N2[C@H](C1)[C@@H](c1ccc(-c3ccc(C(=O)N(C)C)cc3)cc1)[C@@H]2CO	0.6	1	-3
Cc1noc(C)c1S(=O)(=O)Nc1ccc2c(c1)C(=O)N([C@H](C)CO)C[C@@H](C)[C@@H](CN(C)S(=O)(=O)c1ccc(Cl)cc1)O2	-1.1	-1	2
Cc1noc(C)c1S(=O)(=O)N(C)C[C@H]1OCCCC[C@@H](C)Oc2ccc(NC(=O)Nc3ccc(F)cc3)cc2C(=O)N([C@@H](C)CO)C[C@@H]1C	0.2	0	13
COc1ccc(NC(=O)N[C@H]2CC[C@H](CCNC(=O)CN3CCOCC3)O[C@H]2CO)cc1	-2.0	-1	5
CC(C)NC(=O)N(C)C[C@H]1Oc2ccc(NS(=O)(=O)c3ccc(F)cc3)cc2C(=O)N([C@@H](C)CO)C[C@H]1C	1.6	4	1
COc1cccc(CN2CC3(C2)[C@H](c2ccccc2)[C@@H](CO)N3Cc2cccc(OC)c2)c1	4.3	-6	-22
COc1ccccc1Cn1c(C)c(C(=O)NCc2cccc(C)c2)sc1=O	-17	-16	-24
CCC(=O)N1[C@@H]2c3ccc(-c4ccc(F)cc4)c(=O)n3C[C@@H]2[C@@H](CO)[C@@H]1C(=O)N(C)C	-1.0	3	5
CN1C(=O)c2cc(NC(=O)Nc3ccc(F)cc3)ccc2OC[C@H]2O[C@@H](CC(=O)NC3CCC3)CC[C@H]21	-5.5	-16	-38

Going on with the list:
molecule	rRNA inh HTS RFP	rRNA inh HTS	rRNA inh HTS OD600
CCCCN(C)C(=O)c1sc(=O)n(Cc2ccccc2C#N)c1C	-4.2	2	12
CC(C)N(C)c1ncnc2c1ncn2[C@H]1CN(Cc2ccco2)C[C@@H](CO)O1	1.6	11	13
CCCC(=O)Nc1ccc2c(c1)OC[C@H](C)N(CCc1ccccc1)C[C@H](C)[C@H](OC)CN(C)C2=O	-0.6	3	6
CN(C)C(=O)c1ccc(-c2ccc3n(c2=O)C[C@@H]2[C@@H](CO)[C@H](C(=O)NCCc4ccccc4)N[C@H]32)cc1	-1.6	1	2
C[C@@H]1C=CCCO[C@]12C(=O)N(Cc1ccc(F)cc1)c1cccc(Br)c12	-6.9	-2	-25
C[C@@H]1CN([C@@H](C)CO)C(=O)Cc2cc(NC(=O)Nc3ccc(F)cc3)ccc2O[C@@H]1CN(C)C	-0.7	4	3
C[C@@H]1CN([C@H](C)CO)C(=O)c2cccc(NS(=O)(=O)c3cn(C)cn3)c2O[C@H]1CN(C)C(=O)NC1CCCCC1	-0.2	-1	-9
CCC(=O)N(C)C[C@H]1Oc2cc(-c3ccccc3F)ccc2S(=O)(=O)N([C@H](C)CO)C[C@@H]1C	0.6	-7	-18
O=C(C1CCCCC1)N1CC2(C1)[C@H](c1ccccc1)[C@@H](CO)N2Cc1cncnc1	0.4	0	1
COc1ccccc1-c1ccc2c(c1)[C@@H]1[C@@H](CCN1S(=O)(=O)c1cccc(F)c1)[C@H](CO)N2	6.5	-1	-19

Record cards, as listed above:
COc1cccc(-c2ccc(C3[C@H]4CNC[C@@H]3N4CC3CCCCC3)cc2)c1 (stereo partly specified) across the screens: rRNA inh HTS RFP = 6.3; rRNA inh HTS = -4; rRNA inh HTS OD600 = -10
CO[C@H]1CC[C@H]2CCOc3ccc(C#N)cc3C(=O)N(C)C[C@@H](C)C(=O)N(C)C[C@@H]1O2 across the screens: rRNA inh HTS RFP = -4.5; rRNA inh HTS = 1; rRNA inh HTS OD600 = 7

Returning to the listing, starting 3 compounds before the break.
molecule	rRNA inh HTS RFP	rRNA inh HTS	rRNA inh HTS OD600
CCC(=O)N(C)C[C@H]1Oc2cc(-c3ccccc3F)ccc2S(=O)(=O)N([C@H](C)CO)C[C@@H]1C	0.6	-7	-18
O=C(C1CCCCC1)N1CC2(C1)[C@H](c1ccccc1)[C@@H](CO)N2Cc1cncnc1	0.4	0	1
COc1ccccc1-c1ccc2c(c1)[C@@H]1[C@@H](CCN1S(=O)(=O)c1cccc(F)c1)[C@H](CO)N2	6.5	-1	-19
C[C@H](CO)N1C[C@H](C)[C@H](CN(C)S(C)(=O)=O)OCCCC[C@H](C)Oc2ccc(NC(=O)CCC(F)(F)F)cc2C1=O	-1.8	0	2
Cc1noc(C)c1NC(=O)N(C)C[C@@H]1OCCCC[C@@H](C)Oc2ccc(NS(=O)(=O)c3cccs3)cc2C(=O)N([C@H](C)CO)C[C@@H]1C	-0.5	1	-1
COc1ccc(S(=O)(=O)N(C)C[C@H]2Oc3ccc(NC(=O)CCC(F)(F)F)cc3CC(=O)N([C@@H](C)CO)C[C@H]2C)cc1	1.5	2	1
COc1ccc(CCN2CC(C(=O)NCc3cccc(F)c3)CCC2=O)cc1 (stereo unspecified)	3.4	13	17
CC=Cc1ccc2n(c1=O)C[C@@H]1[C@@H](CO)[C@H](C(=O)NCCCN(C)C)[C@H]2N1C(=O)c1ccccc1 (mixture of isomers)	-3.6	3	4
C/C=C/c1ccc([C@@H]2[C@H](CO)N(C(=O)C3CCOCC3)C23CN(C(=O)NC(C)C)C3)cc1	-0.5	1	-2
Cc1ccccc1S(=O)(=O)N1C[C@H]2[C@@H](c3ccccc31)[C@@H](CO)N2C(=O)CC1CC1	0.1	-7	-7
CNC[C@@H]1Oc2c(NC(=O)Nc3ccccc3)cccc2C(=O)N([C@H](C)CO)C[C@@H]1C	2.0	0	-1
CC(=O)N1CC[C@@H]2[C@H](CO)Nc3ccc(C#Cc4cccnc4)cc3[C@@H]21	-4.0	2	7
COc1ccc(C(O)c2nc(-c3ccc4ccccc4c3)cs2)cc1 (stereo unspecified)	-3.6	1	7

Next entries follow.
molecule	rRNA inh HTS RFP	rRNA inh HTS	rRNA inh HTS OD600
O=C(O)C[C@@H]1C[C@H]2c3cc(NC(=O)NC4CCCCC4)ccc3O[C@H]2[C@H](CO)O1	-0.8	4	8
COc1ccc(S(=O)(=O)Nc2cccc3c2O[C@H](CN(C)Cc2ccc4c(c2)OCO4)[C@@H](C)CN([C@H](C)CO)C3=O)cc1	1.2	-5	0
Cc1cccc(CN2CCN(C3CN(CCc4ccccc4)S(=O)(=O)C3)CC2)c1 (stereo unspecified)	1.1	0	-3
Cc1c(Cl)cccc1N=C1NC(=O)CS1	0.8	-6	2
COc1ccc(NC(=O)Nc2ccc3c(c2)[C@H]2C[C@H](CC(=O)NCCc4ccccc4)O[C@H](CO)[C@H]2O3)cc1	1.0	-4	1
COc1ccc(CNC(=O)C[C@H]2CC[C@H](NS(=O)(=O)c3cccc(OC)c3)[C@H](CO)O2)cc1	-2.3	0	-2
